Screening results: PubChem BioAssay, National Center for Advancing Translational Sciences (NCATS)
D2 ag: agonists of human D2 dopamine receptor (beta-arrestin); P14416; DiscoveRx PathHunter D2 beta-arrestin, luminescence, 90 min; 100% = 57 uM dopamine signal; activation, % (test concentration not listed); 360,000 tested, 0.084% active; AID 624465; in the data active = activation above about 40%; inconclusive = about 15% to 40%; inactive = below about 15%; further: compound concentration not given in the record; the text of the record calls up to 30% inactive
Target sequence (P14416 whole entry, looked up): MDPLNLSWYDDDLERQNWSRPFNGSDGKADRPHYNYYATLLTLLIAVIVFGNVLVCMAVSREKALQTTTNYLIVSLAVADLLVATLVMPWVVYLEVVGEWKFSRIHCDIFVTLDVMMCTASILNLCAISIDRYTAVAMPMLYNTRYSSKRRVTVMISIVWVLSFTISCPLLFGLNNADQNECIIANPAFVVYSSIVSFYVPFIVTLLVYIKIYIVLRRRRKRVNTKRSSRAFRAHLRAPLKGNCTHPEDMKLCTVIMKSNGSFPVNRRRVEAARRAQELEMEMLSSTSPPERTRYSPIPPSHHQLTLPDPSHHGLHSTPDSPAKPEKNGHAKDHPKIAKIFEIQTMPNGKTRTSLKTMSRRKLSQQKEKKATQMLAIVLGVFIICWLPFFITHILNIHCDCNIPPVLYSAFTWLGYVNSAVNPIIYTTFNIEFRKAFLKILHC
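DiscoveRx PathHunter D2 beta-arrestin cells (2,100/well) attached overnight, then compound-stimulated 90 min at 37 C in HBSS/10 mM HEPES/0.1% Tween-20 buffer; beta-galactosidase complementation read by luminescence after 1 h at ambient temperature. Dopamine 57 uM final (EC100) as control.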
D2 potentiator: human D2 receptor positive allosteric modulation; potentiation, % (no concentration beside the values); AID 624464; P14416; 360,000 tested, 0.23% active; DiscoveRx D2 beta-arrestin cells, luminescence, 90 min; 100% = 57 uM dopamine signal; active = potentiation of 50% or more; inconclusive = 30% to 50%; inactive = 30% or less;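 further: compound concentration not given in the record; tested on top of an EC20 dose of dopamine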
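PathHunter beta-arrestin assay in DiscoveRx D2 cells. Compounds were added with an EC20 of dopamine (50 nM final) for 90 min at 37 deg C. Luminescence was read 1 h after detection reagent, with 57 uM dopamine as the EC100 control.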
gsp agonist: activates gsp, the McCune-Albright syndrome mutation; 340,000 tested, 0.13% active; AID 624287; gsp mutant cells, cAMP HTRF, 30 min; control for the full effect not named in the record; Potency, µM (doses to about 76.9 µM), for inactives: at the top dose activation (cAMP increase), actives largely listed as activators; active = well fitted activation curve with a large enough effect; inconclusive = small, poorly fitted or top-dose-only effect, or another doubt; inactive = no such curve, though single readings can be large or run the other way; cell line not stated here;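 further: phosphodiesterase inhibitor Ro 20-1724 added with compounds to block cAMP breakdown; potency means the concentration at half of the fitted maximal effect; nearly all actives have a fitted effect of over 60% in size; about a fifth of the inactives were tested at one dose only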
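Cells stably selected in G418 were plated at 2000/well, grown 16-24 hr, then given compounds in DMSO with the PDE inhibitor […] (300 uM solution added) for 30 min at 37C; cAMP was read by HTRF.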
Six1-Eya2 inh: inhibitors of human Six1/Eya2 interaction; AlphaScreen GST-Six1/His-Eya2 binding, biochemical; stronger effect = lower value; control for the full effect not named in the record; Q15475+O00167; activity change, % (concentration not given with the values); 360,000 tested, 0.56% active; in the data active = activity change below about -65%; inconclusive = about -30% to -65%; inactive = above about -30%; further: on the % scale 0 is the no-effect control and ±100 the full control effect
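Compounds are tested against tagged Six1 and Eya2 proteins bridged by glutathione donor and nickel acceptor beads; after a one-hour incubation at 37 °C without light, AlphaScreen emission is recorded.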
CtBP-E1A blk: CtBP/E1A binding inhibition; AlphaScreen GST-E1A/His-CtBP binding, 1536-well; stronger effect = lower value; control for the full effect not named in the record; activity change, % (no concentration beside the values); 340,000 tested, 0.49% active; in the data active means activity change below about -65%; inconclusive means about -30% to -65%; inactive means above about -30%; further: on the % scale 0 is the no-effect control and ±100 the full control effect; compound concentration not given in the record
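Steps: dispense buffer (Tris pH 8.0, NaCl 300 mM, TCEP 1 mM, BSA, Tween 20); add 5X protein mix (GST-E1A, His-CtBP, 125 nM each); pin 23 nL compound; 2 h at 37 °C, dark; add 5X beads (50 ug/mL); 1 h; read.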
gsp antag: antagonists of gsp mutant (McCune-Albright syndrome); gsp-mutant cells, cAMP HTRF, 30 min; control for the full effect not named in the record; Potency, µM (highest dose often 76.9 µM), inactives show at the top dose activity change, negative = inhibition, actives largely listed as inhibitors; 340,000 tested, 0.4% active; active = falling curve of any shape with a large fitted effect; inconclusive = falling curve, mostly with a smaller effect; inactive = flat or rising curve; cell line not stated here;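 further: intracellular cAMP measured with PDE inhibitor Ro 20-1724 present during compound exposure; potency means the concentration at half of the fitted maximal effect; on the % scale 0 is the no-effect control and ±100 the full control effect; nearly all actives have a fitted effect of over 65% in size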
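Cells, 2000/well, grown 16–24 h in DMEM 10% FBS with 0.5 mg/ml G418, then compounds plus […] (300 uM addition stock), 30 min at 37C. cAMP read by HTRF (cAMP-d2 and anti-cAMP antibody-K in lysis buffer) after 30 min RT.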
The depositor's hits bear a star; ? = inconclusive; nt = not tested or not shown; [ ] = remark or other dose. Rows were taken by chance; any-hit rate near 1.4%.

SMILES | D2 ag | D2 potentiator | gsp agonist | Six1-Eya2 inh | CtBP-E1A blk | gsp antag
O=C(N/N=C\c1ccc([N+](=O)[O-])s1)C1COc2ccccc2O1 (stereo not drawn) | 11 | 9 | -14% | -2 | 1 | -6%
CC(NC(=O)Nc1ncccn1)(C(F)(F)F)C(F)(F)F | -1.7 | -3 | 3% | 3 | 6 | 11%
CC1CC(C)CN(C(=O)CCc2ccccc2)C1 (stereo not drawn) | -0.9 | -8 | -13%[15.4 µM] | -1 | -20 | 18%
CCN(CC(=O)Nc1c(F)cccc1F)C(=O)c1cccc(S(=O)(=O)N2CCN(c3ccccc3)CC2)c1 | -4.1 | -14 | 1% | -3 | -22 | -12%
CCn1c(SCC(N)=O)nc2sc3c(c2c1=O)CCCC3 | 2.0 | -5 | 4% | 1 | 0 | 0%
CCC(=O)NC(=S)Nc1ccc(NC(=O)c2cccnc2)cc1 | 0.2 | -5 | -1%[15.4 µM] | -12 | 9 | -3%
Cc1ccc(SCC(=O)N2CCN(c3ccc(F)cc3)CC2)cc1 | -4.1 | -2 | -26% | -1 | 6 | -1%
CC(OC(=O)/C=C/c1ccccc1)C(=O)Nc1cccc(C#N)c1 (stereo not drawn) | -5.9 | -20 | 5% | -6 | ? | -1%
O=C1C2C3C=CC(C4CC34)C2C(=O)N1/N=C/c1ccc(-c2ccccc2[N+](=O)[O-])o1 (stereo not drawn) | -3.5 | -10 | 2% | -14 | -16 | -7%
COc1ccc(CCNC(=O)CN2CCN(c3ccccc3Cl)CC2)cc1 | -1.9 | -30 | 0% | -2 | -5 | -1%
COc1ccc(NC(=O)CSc2nnc(CN3CCOCC3)n2C)cc1Cl | 2.2 | -16 | -13% | 34 | 0 | 0%
CS(=O)(=O)c1ccc(Cl)c(NC(=O)c2cccc(-n3cnnn3)c2)c1 | -5.5 | -4 | -10%[15.4 µM] | 5 | -2 | 5%
COCCCNC(=O)Cn1cc(/C=C(\C#N)C(=O)NC2CCCC2)c2ccccc21 | -1.0 | 0 | 22% | -3 | nt | -1%
COc1ccccc1C1NC(c2ccccc2OC)C(C)C(=O)C1C (stereo not drawn) | -4.0 | -9 | 2% | 0 | 1 | -7%
COc1ccccc1NCN1C(=O)CCC1=O | 7.9 | -1 | ? | 4 | 5 | 1%
CCCn1c(C)cc(C(=O)CN2C(=O)NC3(CCCCCC3)C2=O)c1C | -0.2 | -10 | 7% | -3 | 24 | nt
O=C(CSC1=NCCS1)N1CCc2ccccc21 | -1.4 | -27 | 2% | 3 | 4 | 7%
CCOC(=O)c1cnc2c(Cl)cccc2c1NCCCN1CCOCC1 | -4.3 | -12 | 24% | -1 | nt | -6%
O=C1CC(c2ccco2)CC(O)=C1C=NCCO (stereo not drawn) | 0.5 | 21 | -2% | -1 | 3 | -1%
COc1ccccc1OCC(=O)Nc1ccc(C(=O)Nc2ccccc2C(=O)O)cc1 | 4.9 | 9 | 0% | ? | 2 | nt
O=C1CC(c2ccccc2)CN1Cc1ccccc1 (stereo not drawn) | 1.1 | -2 | ? | 7 | 8 | 6%
O=C(NCC1CCCO1)c1sc2cc(Cl)ccc2c1Cl (stereo not drawn) | -1.5 | -1 | -2%[15.4 µM] | 1 | -7 | 11%
CC1CCc2cccc3c2N1c1cc(C#N)c(C#N)cc1O3 (stereo not drawn) | 0.5 | 4 | 5% | 18 | 21 | -8%
Cc1nnc(SCC(=O)N2CC(C)OC(C)C2)n1-c1ccccc1 (stereo not drawn) | -3.9 | -6 | 5%[15.4 µM] | 14 | 8 | -6%
CS(=O)(=O)N(CC(=O)NC1CCCC1)c1cccc(F)c1 | -1.5 | -9 | -4% | 0 | 1 | 8%

5 compounds drawn at random from the list so far:
SMILES | D2 ag | D2 potentiator | gsp agonist | Six1-Eya2 inh | CtBP-E1A blk | gsp antag
CCN(CC(=O)Nc1c(F)cccc1F)C(=O)c1cccc(S(=O)(=O)N2CCN(c3ccccc3)CC2)c1 | -4.1 | -14 | 1% | -3 | -22 | -12%
O=C(NCC1CCCO1)c1sc2cc(Cl)ccc2c1Cl (stereo not drawn) | -1.5 | -1 | -2%[15.4 µM] | 1 | -7 | 11%
CC(OC(=O)/C=C/c1ccccc1)C(=O)Nc1cccc(C#N)c1 (stereo not drawn) | -5.9 | -20 | 5% | -6 | ? | -1%
COc1ccccc1NCN1C(=O)CCC1=O | 7.9 | -1 | ? | 4 | 5 | 1%
CC1CC(C)CN(C(=O)CCc2ccccc2)C1 (stereo not drawn) | -0.9 | -8 | -13%[15.4 µM] | -1 | -20 | 18%

A second format for part of the listing above:
Structure,D2 ag,D2 potentiator,gsp agonist,Six1-Eya2 inh,CtBP-E1A blk,gsp antag
Cc1nnc(SCC(=O)N2CC(C)OC(C)C2)n1-c1ccccc1 (stereo not drawn),-3.9,-6,5%[15.4 µM],14,8,-6%
CCOC(=O)c1cnc2c(Cl)cccc2c1NCCCN1CCOCC1,-4.3,-12,24%,-1,nt,-6%
CCn1c(SCC(N)=O)nc2sc3c(c2c1=O)CCCC3,2.0,-5,4%,1,0,0%
Cc1ccc(SCC(=O)N2CCN(c3ccc(F)cc3)CC2)cc1,-4.1,-2,-26%,-1,6,-1%

Other structures follow.
SMILES | D2 ag | D2 potentiator | gsp agonist | Six1-Eya2 inh | CtBP-E1A blk | gsp antag
CCN(CC)CCCOc1ccc(Cl)c(Cl)c1 | -1.2 | -16 | -49%[inhibitor] | 13 | -14 | -5%
O=C(Cc1ccccc1)N/N=C/c1ccc(Cl)cc1Cl | 1.0 | -23 | 1% | 6 | 16 | 3%
Cc1ccc(S(=O)(=O)NC(CC(=O)N2CCOCC2)c2ccco2)cc1 (stereo not drawn) | -2.2 | 2 | 2% | 0 | 17 | 7%
O=C(O)C1CCN(S(=O)(=O)c2ccc(N3CCC(O)CC3)c([N+](=O)[O-])c2)CC1 | -6.9 | -7 | -30%[inhibitor] | 3 | -3 | 4%
O=C1CC(c2ccc(F)cc2)C2=C(CCCC2=O)N1 (stereo not drawn) | 2.9 | -1 | -17% | 7 | -2 | 3%
CC(C)CCNC(=O)C(C)N(Cc1ccc(F)cc1)C(=O)c1ccc(CN2CCOCC2)o1 (stereo not drawn) | -1.3 | -5 | 4%[15.4 µM] | 10 | 7 | 6%
Cc1cc(C)c2nc(SCC(=O)Nc3cc(C)on3)c(C#N)cc2c1 | 2.3 | -2 | 19% | 0 | -20 | 2%
CC(=O)Nc1ccc2nc(NC(=O)COc3cccc(C)c3)sc2c1 | 2.2 | -7 | 6%[15.4 µM] | -9 | -5 | -25%
CC(C)OCCCNc1ncc2c(n1)CC(c1ccc(N(C)C)cc1)CC2=O (stereo not drawn) | -0.9 | -2 | 5% | 2 | -8 | 2%
CNC(=O)c1nnc(Cc2ccc(F)cc2)o1 | -5.0 | -2 | 24% | 8 | -1 | 6%
COc1ccc(N2C(=O)CC(N3CCN(S(=O)(=O)c4ccc(Cl)cc4)CC3)C2=O)cc1 (stereo not drawn) | -0.9 | -3 | 19%[15.4 µM] | -9 | 3 | nt
CCN1CCN(c2ccc(S(=O)(=O)N3CCCCC3)cc2NC(=O)Cc2c(F)cccc2Cl)CC1 | -1.9 | 4 | 0% | 0 | -3 | 14%
COc1cccc(C(=O)N2CCN(C3CCC(c4ccccc4)CC3)CC2)c1 (stereo not drawn) | -2.3 | -29 | -15% | -12 | -3 | -14%
O=C(CN1CCN(c2ccccc2O)CC1)NCCCc1ccccc1 | -6.8 | -13 | 8%[15.4 µM] | 5 | -5 | 1%
O=C(COC(=O)c1ccc(NS(=O)(=O)c2cccs2)cc1)Nc1nc2c(F)c(F)c(F)cc2s1 | -6.6 | 8 | 13%[15.4 µM] | 8 | 2 | -16%
COC(=O)Cn1cc(/C=N/NC(=O)COc2cccc3cccnc23)c2ccccc21 | 0.2 | 2 | 0% | 1 | 1 | -7%
COc1ccc(CCNC(=O)CCC(=O)N2CCN(S(=O)(=O)c3ccc(Cl)cc3)CC2)cc1OC | -1.5 | -22 | -21% | 24 | 0 | -13%
Cc1cccc(NC(=O)COC(=O)CSc2ccccc2)c1C | -3.8 | 1 | -9% | 5 | nt | -4%
CC(NC(=O)Cn1nc(C(F)(F)F)c2c1CCC2)c1ccccc1 (stereo not drawn) | -2.9 | -16 | -31%[inhibitor] | 6 | 0 | 6%
O=S(=O)(O)c1ccc(SCc2ccccc2)nc1 | -2.8 | -5 | -7%[15.4 µM] | 2 | 12 | 10%
CCCc1cc(C(=O)OC)c(NC(=O)OCC)s1 | -1.9 | 0 | -28% | 14 | 22 | -3%
COC(=O)CCC/C=C1/SCC(NC(=O)c2ccccc2)C1O (stereo not drawn) | -1.5 | 4 | -3% | 2 | 1 | -6%
CN(C)S(=O)(=O)c1cccc(COc2cccnc2[N+](=O)[O-])c1 | 1.5 | 2 | -7%[15.4 µM] | -2 | 4 | -5%
COc1ccnc(N=CNOCc2cccc(Cl)c2Cl)c1C#N | -5.0 | 8 | 4% | -1 | -2 | -13%
CCN(CC(=O)NCc1cccs1)C(=O)c1ccc(S(=O)(=O)N(C)c2ccccc2)cc1 | -0.4 | -15 | -4%[15.4 µM] | 1 | -4 | -21%
(continued)
SMILES | D2 ag | D2 potentiator | gsp agonist | Six1-Eya2 inh | CtBP-E1A blk | gsp antag
CC1CCCN(S(=O)(=O)c2ccc(C(=O)Nc3ccccc3-c3nc4ccccc4[nH]3)cc2)C1 (stereo not drawn) | 1.4 | -8 | 0%[15.4 µM] | 3 | 20 | 0%
O=C(NCc1ccc(Cl)nc1)c1csc([C@@H]2O[C@H](CO)[C@H](O)[C@H](O)[C@H]2O)n1 | -7.8 | -10 | nt | 8 | 2 | nt
COc1cccc(NC=C2C(=O)OC(C)(C)OC2=O)c1 | 0.3 | -15 | 7% | 0 | 5 | 6%
CCOC(=O)c1cc2c(nc1NC(=S)NCc1ccccc1)CCCC2 | 10 | -2 | 15% | 0 | 0 | -4%
CCOC(=O)C1(C)CCCN1C(=O)c1ccc2ccccc2c1 (stereo not drawn) | 0.3 | -2 | nt | 4 | 6 | nt
CC(=O)c1sc(C(C)(C)C)cc1NC(=O)c1ccccc1C(=O)O | 0.2 | -4 | 96%[15.4 µM] | -1 | -1 | 27%
COC(=O)CC1SC(=O)NC1=Nc1ccc(C)cc1 (stereo not drawn) | -1.8 | -18 | 10% | 7 | 11 | 0%
c1ccc(Oc2ncnc3sccc23)cc1 | -1.1 | -5 | -11%[15.4 µM] | 19 | -16 | 1%
Cc1[nH]c(=O)[nH]c1C(=O)CCCCC(=O)OCC(=O)Nc1ccccn1 | -1.7 | -3 | -3% | -1 | -9 | 9%
